Yeast UUG start = yeast start codon fidelity modulation; S. cerevisiae UUG-firefly luciferase reporter, luminescence/redox ratio; hit rate 0.13% among 350,000; activity score, % at 18.7 µM;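 active = replicate mean at a twofold rise or more, about +100% in these data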;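 also: firefly luciferase made from a UUG start codon reports start codon fidelity; reporter light over untreated wells divided by growth signal over untreated wells; some hits fall short of that in this replicate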
The depositor's hits bear a star.

Screening COc1ccccc1C#Cc1ccc([C@H]2[C@H](CO)N3CCCCN(S(C)(=O)=O)C[C@@H]23)cc1 returned Yeast UUG start -6.
`CO[C@@H]1CN(C)C(=O)c2ccc(NC(=O)C3CCCCC3)cc2OC[C@@H](C)N(Cc2nccs2)C[C@@H]1C` gave Yeast UUG start 14.
For O=C(Nc1ccc(F)cc1)N1CCCCN2[C@@H](CO)[C@H](c3ccc(C#Cc4ccccn4)cc3)[C@@H]2C1 the results were Yeast UUG start 4.
CC(C)NC(=O)Nc1ccc2c(c1)CC(=O)N([C@H](C)CO)C[C@H](C)[C@@H](CN(C)C(=O)NC(C)C)O2 was read as Yeast UUG start -3.
`CCCC#Cc1ccc([C@@H]2[C@H](CO)N3CCCCN(CC4CCOCC4)C[C@@H]23)cc1` gave Yeast UUG start -4.
For CO[C@@H]1CN(C)C(=O)c2cc(NC(=O)NC3CCCCC3)ccc2OC[C@H](C)NC[C@H]1C the results were Yeast UUG start -12.
OC[C@H]1[C@@H]2c3ccccc3NC[C@@H]2N1Cc1ccccc1Cl was read as Yeast UUG start 6.
Screening O=C(C1CCCC1)N1[C@@H](CO)[C@@H]2c3ccccc3N(S(=O)(=O)c3ccc(F)cc3)C[C@@H]21 returned Yeast UUG start 4.
`C[C@H]1CN([C@@H](C)CO)C(=O)c2cc(NC(=O)NC3CCCCC3)ccc2O[C@H]1CN(C)S(=O)(=O)c1cn(C)cn1` gave Yeast UUG start 2.
For O=C(c1ccc2c(c1)OCO2)N1CC[C@@H]2[C@H]1c1cc(C#Cc3ccccc3)ccc1N[C@@H]2CO the results were Yeast UUG start -4.
For CN1c2ccc(Br)cc2[C@@H]2[C@@H](CCN2C(=O)CN2CCOCC2)[C@@H]1CO the results were Yeast UUG start 11.
Cc1ccc(S(=O)(=O)Nc2ccc3c(c2)CC(=O)N([C@@H](C)CO)C[C@@H](C)[C@@H](CN(C)C)O3)cc1 was read as Yeast UUG start -20.
Screening C[C@@H]1CN([C@H](C)CO)C(=O)c2cc(N(C)C)ccc2O[C@@H]1CN(C)S(=O)(=O)c1ccc(Cl)cc1 returned Yeast UUG start 4.
For OC[C@@H]1[C@H](c2ccc(-c3cccnc3)cc2)[C@H]2CN(CC3CCOCC3)CCCCN12 the results were Yeast UUG start -15.
`C[C@@H]1CN([C@H](C)CO)C(=O)c2cc(NC(=O)Cn3cnnn3)ccc2O[C@@H]1CN(C)C(=O)Nc1ccc(C(F)(F)F)cc1` gave Yeast UUG start -11.
`CCCNC(=O)Nc1ccc2c(c1)OC[C@@H](C)N(Cc1ccccn1)C[C@H](C)[C@H](OC)CN(C)C2=O` gave Yeast UUG start -11.
`CCCNC(=O)[C@H]1[C@H](CO)[C@H]2Cn3c(ccc(C4=CCCCC4)c3=O)[C@@H]1N2Cc1cocn1` gave Yeast UUG start 19.
For O=C(C[C@H]1C[C@@H]2c3cc(NC(=O)Nc4ccc(F)cc4)ccc3O[C@@H]2[C@H](CO)O1)NCC1CC1 the results were Yeast UUG start -11.
Screening Cc1ccc(-c2ccc([C@@H]3[C@@H](CO)N4CCCCN(C(=O)c5ccncc5)C[C@@H]34)cc2)cc1 returned Yeast UUG start -9.
Screening O=C(Nc1ccc(F)cc1)N1C[C@@H]2[C@H](c3ccccc31)[C@H](CO)N2C(=O)Cc1ccncc1 returned Yeast UUG start 35.
`CN(C[C@@H]1[C@@H](c2ccccc2)[C@H](CO)N1CC1CC1)C(=O)c1ccc(F)cc1` gave Yeast UUG start -4.
COCC(=O)Nc1ccc2c(c1)C(=O)N(C)C[C@@H](OC)[C@H](C)CN(C(=O)C1CCCC1)[C@H](C)CO2 was read as Yeast UUG start 0.
C[C@@H]1CN([C@H](C)CO)C(=O)c2cccc(N(C)C)c2O[C@@H]1CN(C)S(=O)(=O)c1ccccc1 was read as Yeast UUG start -10.
CC(C)NC(=O)N1[C@H](CO)[C@H]2c3ccccc3N(C(=O)Nc3cccc(Cl)c3)C[C@H]21 was read as Yeast UUG start 8.

Arranged by length of the SMILES (rising): some entries from above.
For OC[C@@H]1[C@H](c2ccc(-c3cccnc3)cc2)[C@H]2CN(CC3CCOCC3)CCCCN12 the results were Yeast UUG start -15.
CC(C)NC(=O)N1[C@H](CO)[C@H]2c3ccccc3N(C(=O)Nc3cccc(Cl)c3)C[C@H]21 was read as Yeast UUG start 8.
Screening O=C(Nc1ccc(F)cc1)N1C[C@@H]2[C@H](c3ccccc31)[C@H](CO)N2C(=O)Cc1ccncc1 returned Yeast UUG start 35.
Screening Cc1ccc(-c2ccc([C@@H]3[C@@H](CO)N4CCCCN(C(=O)c5ccncc5)C[C@@H]34)cc2)cc1 returned Yeast UUG start -9.
`CCCNC(=O)Nc1ccc2c(c1)OC[C@@H](C)N(Cc1ccccn1)C[C@H](C)[C@H](OC)CN(C)C2=O` gave Yeast UUG start -11.
C[C@@H]1CN([C@H](C)CO)C(=O)c2cccc(N(C)C)c2O[C@@H]1CN(C)S(=O)(=O)c1ccccc1 was read as Yeast UUG start -10.
For O=C(C[C@H]1C[C@@H]2c3cc(NC(=O)Nc4ccc(F)cc4)ccc3O[C@@H]2[C@H](CO)O1)NCC1CC1 the results were Yeast UUG start -11.
Screening C[C@@H]1CN([C@H](C)CO)C(=O)c2cc(N(C)C)ccc2O[C@@H]1CN(C)S(=O)(=O)c1ccc(Cl)cc1 returned Yeast UUG start 4.
Cc1ccc(S(=O)(=O)Nc2ccc3c(c2)CC(=O)N([C@@H](C)CO)C[C@@H](C)[C@@H](CN(C)C)O3)cc1 was read as Yeast UUG start -20.
`C[C@@H]1CN([C@H](C)CO)C(=O)c2cc(NC(=O)Cn3cnnn3)ccc2O[C@@H]1CN(C)C(=O)Nc1ccc(C(F)(F)F)cc1` gave Yeast UUG start -11.

Further results
CC(C)NC(=O)Nc1ccc2c(c1)C(=O)N([C@@H](C)CO)C[C@@H](C)[C@@H](CN(C)C(=O)NC(C)C)O2 was read as Yeast UUG start -1.
`CNC(=O)C[C@@H]1CC[C@H]2[C@@H](COC[C@@H](O)CN2S(=O)(=O)c2ccc(Oc3ccccc3)cc2)O1` gave Yeast UUG start 6.
Screening COc1ccccc1NC(=O)N(C)C[C@@H]1OCc2ccccc2-c2c(n(C)c3ccccc23)C(=O)N([C@@H](C)CO)C[C@H]1C returned Yeast UUG start 6.
Screening CC(C)NC(=O)N1CCCCN2[C@H](CO)[C@H](c3ccc(C#Cc4ccccc4F)cc3)[C@H]2C1 returned Yeast UUG start 13.
`CCC(=O)Nc1ccc2c(c1)C(=O)N(C)[C@H]1CC[C@H](CC(=O)O)O[C@H]1CO2` gave Yeast UUG start -1.
`O=C(c1ccncc1)N1C[C@@H]2[C@H](c3ccccc31)[C@H](CO)N2C(=O)Nc1ccc(F)cc1` gave Yeast UUG start 5.
Screening O=C(C[C@@H]1C[C@H]2c3cc(NS(=O)(=O)c4ccccc4)ccc3O[C@H]2[C@H](CO)O1)N1CCCCC1 returned Yeast UUG start 16.
For COCC(=O)Nc1ccc2c(c1)[C@H]1C[C@@H](CC(=O)OC)O[C@H](CO)[C@H]1O2 the results were Yeast UUG start -11.
Screening Cc1ccc(S(=O)(=O)N(C)C[C@@H]2OCc3ccccc3-c3ccccc3C(=O)N([C@@H](C)CO)C[C@@H]2C)cc1 returned Yeast UUG start 0.
Screening CCCNC(=O)[C@H]1[C@H](CO)[C@H]2Cn3c(ccc(/C=C/c4ccccc4)c3=O)[C@@H]1N2C(=O)c1ccccc1 returned Yeast UUG start 17.
`Cc1ccc(S(=O)(=O)N(C)C[C@H]2Oc3c(NC(=O)c4nc5ccccc5s4)cccc3C(=O)N([C@@H](C)CO)C[C@H]2C)cc1` gave Yeast UUG start -15.
O=C(c1cccc(F)c1)N1CCCCN2[C@H](C1)[C@H](c1ccc(C#CC3(O)CCCC3)cc1)[C@@H]2CO was read as Yeast UUG start 14.
For CCCNC(=O)N1C[C@@H](O)COC[C@@H]2O[C@H](CC(=O)N3CCOCC3)CC[C@H]21 the results were Yeast UUG start -1.
Screening COCCNC(=O)C[C@H]1CC[C@H]2[C@@H](COC[C@H](O)CN2S(=O)(=O)c2ccccc2C)O1 returned Yeast UUG start 8.
Screening CO[C@H]1CN(C)C(=O)c2cc(NC(=O)C3CCCC3)ccc2OC[C@@H](C)N(C)C[C@@H]1C returned Yeast UUG start 18.
O=C(c1ccccn1)N1C[C@H]2[C@@H](c3ccccc31)[C@H](CO)N2C(=O)Nc1ccccc1 was read as Yeast UUG start 21.
`CO[C@@H]1CN(C)C(=O)c2cc(NC(=O)C3CCCCC3)ccc2OC[C@H](C)N(Cc2cccnc2)C[C@@H]1C` gave Yeast UUG start 0.
`C[C@H](CO)N1C[C@H](C)[C@H](CN(C)CC2CC2)Oc2c(NC(=O)C3CC3)cccc2C1=O` gave Yeast UUG start -12.
`CC(C)CC#Cc1ccc([C@@H]2[C@@H](CO)N3CCCCN(S(=O)(=O)c4ccc(F)cc4)C[C@@H]23)cc1` gave Yeast UUG start 1.
`Cc1ccc(S(=O)(=O)N(C)C[C@H]2Oc3c(NC(=O)C4CC4)cccc3C(=O)N([C@@H](C)CO)C[C@H]2C)cc1` gave Yeast UUG start 6.
For C[C@@H]1CN([C@H](C)CO)C(=O)c2cc(NC(=O)CCC(F)(F)F)ccc2O[C@@H]1CN(C)Cc1ccc(C(=O)Nc2ccccc2N)cc1 the results were Yeast UUG start 20.
For CO[C@H]1CN(C)C(=O)c2cc(NC(=O)NC3CCCCC3)ccc2OC[C@@H](C)N(CC2CCOCC2)C[C@H]1C the results were Yeast UUG start -6.
N#Cc1ccc(-c2ccc3c(c2)[C@@H]2[C@@H](CCN2S(=O)(=O)c2cccc(F)c2)[C@@H](CO)N3)cc1 was read as Yeast UUG start 1.
`Cc1ccc(S(=O)(=O)N(C)C[C@@H]2Oc3c(NC(=O)c4nc5ccccc5s4)cccc3C(=O)N([C@@H](C)CO)C[C@@H]2C)cc1` gave Yeast UUG start -16.
For CCCNC(=O)Nc1ccc2c(c1)C(=O)N(C)C[C@H](OC)[C@H](C)CN(Cc1cccnc1)[C@H](C)CO2 the results were Yeast UUG start 1.
COc1ccc(NC(=O)N(C)C[C@H]2OCc3ccccc3-c3c(n(C)c4ccccc34)C(=O)N([C@H](C)CO)C[C@H]2C)cc1 was read as Yeast UUG start 3.
Screening CN(C)C(=O)C[C@H]1C[C@H]2c3cc(NC(=O)c4ccc5c(c4)OCO5)ccc3O[C@H]2[C@H](CO)O1 returned Yeast UUG start 5.
For Cc1ccc(S(=O)(=O)Nc2ccc3c(c2)C(=O)N([C@H](C)CO)C[C@H](C)[C@@H](CN(C)Cc2ccc4c(c2)OCO4)O3)cc1 the results were Yeast UUG start -8.
C[C@@H]1CN([C@@H](C)CO)C(=O)CCCn2cc(nn2)CO[C@@H]1CN(C)C(=O)Nc1ccc(N2CCN(C)CC2)cc1 was read as Yeast UUG start -9.
`CN(C)CC#Cc1ccc([C@H]2[C@@H](CO)N3CCCCN(C(=O)C4CCC4)C[C@@H]23)cc1` gave Yeast UUG start -4.
`COc1cccc(-c2ccc3c(c2)[C@@H]2[C@@H](CCN2S(=O)(=O)C2=NC(C)C=N2)[C@H](CO)N3C)c1` (stereo partly drawn) gave Yeast UUG start -6.
C[C@H](CO)N1C[C@H](C)[C@H](CN(C)Cc2ccc(C(=O)O)cc2)Oc2ccc(NC(=O)Nc3ccc4c(c3)OCO4)cc2C1=O was read as Yeast UUG start 14.
CC(C)CC#Cc1ccc2c(c1)O[C@@H](CN(C)Cc1ccccc1F)[C@@H](C)CN([C@H](C)CO)S2(=O)=O was read as Yeast UUG start 8.
CC(C)NC(=O)N(C)C[C@@H]1Oc2c(NC(=O)c3cnccn3)cccc2C(=O)N([C@@H](C)CO)C[C@@H]1C was read as Yeast UUG start 2.
CC=Cc1ccc2n(c1=O)C[C@@H]1[C@@H](CO)[C@H](C(=O)N3CCCCC3)N(Cc3ccccc3OC)[C@H]21 (mixture of isomers) was read as Yeast UUG start -5.
Screening COc1cccc(-c2ccc3c(c2)[C@@H]2[C@@H](CCN2S(=O)(=O)c2ccccc2C)[C@H](CO)N3C)c1 returned Yeast UUG start 4.
Screening COCC#Cc1ccc([C@@H]2[C@@H](CO)N3CCCCN(C(=O)Nc4cc(F)ccc4F)C[C@H]23)cc1 returned Yeast UUG start 0.
CCCC(=O)Nc1ccc2c(c1)C(=O)N(C)C[C@@H](OC)[C@@H](C)CN(Cc1cccc(F)c1)[C@H](C)CO2 was read as Yeast UUG start -2.
COc1ccc(-c2ccc3c(c2)[C@@H]2[C@@H](CCN2C(=O)C2CCOCC2)[C@@H](CO)N3C)cc1 was read as Yeast UUG start 12.
For O=C(CN1CCOCC1)N1CCCCN2[C@H](CO)[C@H](c3ccc(/C=C/c4ccccc4)cc3)[C@@H]2C1 the results were Yeast UUG start -4.
CC(C)OC(=O)N(C)C[C@H]1OCc2cnnn2CCCC(=O)N([C@@H](C)CO)C[C@@H]1C was read as Yeast UUG start 5.
Screening CO[C@@H]1CN(C)C(=O)c2cc(NC(=O)C3CCCC3)ccc2OC[C@H](C)N(C)C[C@@H]1C returned Yeast UUG start 3.
Screening O=C(NCC(F)(F)F)[C@@H]1[C@@H](CO)[C@@H]2Cn3c(cccc3=O)[C@H]1N2C(=O)C1CC1 returned Yeast UUG start -7.
CN(C)C(=O)c1cccc(-c2ccc([C@@H]3[C@H](CO)N4CCCCN(CCC(F)(F)F)C[C@@H]34)cc2)c1 was read as Yeast UUG start -2.
Screening COCC(=O)N1C[C@@H](C)[C@H](OC)CN(C)C(=O)c2ccc(NC(=O)c3cc(C)on3)cc2OC[C@H]1C returned Yeast UUG start 2.
For CC(C)NC(=O)N1[C@@H](CO)[C@@H]2c3ccccc3N(C(=O)Nc3ccccc3)C[C@@H]21 the results were Yeast UUG start -10.
`COCC(=O)NC[C@@H]1[C@H](c2ccccc2)[C@@H](CO)N1C(=O)c1ccccc1` gave Yeast UUG start -6.
CCCC#Cc1ccc([C@H]2[C@@H](CO)N3CCCCN(Cc4ccncc4)C[C@H]23)cc1 was read as Yeast UUG start -14.
Screening O=C(c1ccccn1)N1C[C@H]2[C@@H](c3ccccc31)[C@H](CO)N2C(=O)Cc1ccccc1 returned Yeast UUG start -15.
`CC(C)(O)C#Cc1ccc([C@H]2[C@@H](CO)N3CCCCN(C(=O)c4cccnc4)C[C@H]23)cc1` gave Yeast UUG start -12.
For O=C(C[C@@H]1CC[C@H]2NC[C@H](O)COC[C@@H]2O1)NCCc1ccccc1 the results were Yeast UUG start -5.

These rows are one share of the data (hit frequency here may not be typical).
